# Anthrax LT inh: blocks cellular internalization of anthrax lethal toxin. Cells, anthrax lethal toxin internalization, FRET ratio (460/530). AID 912. hit rate 0.67% among 70,000. Potency, µM (highest dose often 40 µM), for the others: at the highest dose activity change, negative = inhibition, usual class: inhibitors; active = well fitted falling ratio curve with the 530 nm signal flat; inconclusive = other ratio curves, or a change in one channel alone; inactive = flat curves in the ratio and both channels; the % refers to the ratio; note: % is set by controls: 0 for no effect and ±100 for the full control effect; nearly all actives have a fitted effect of over 50% in size; tested in ME-180 cells; beta-lactamase reporter
# SmPrx2 inh: inhibitors of Schistosoma mansoni peroxiredoxin 2. S. mansoni Prx2 activity coupled to TGR/GSH (TGR is thioredoxin glutathione reductase), NADPH fluorescence loss, qHTS; some inactives read as strong as hits. Potency, µM. hit rate 0.07% among 65,000; active means full or partial inhibition curve with a strong effect at the top dose; inconclusive means weaker partial or single-point curve; inactive means no accepted curve; note: series up to 57 µM; many of its hits are not listed in these tables
#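 Coupled assay in which S. mansoni TGR passes NADPH reducing equivalents via glutathione to Prx2, which reduces H2O2. Compounds were preincubated 15 min at room temperature with 25 nM TGR/50 nM Prx2 mix. Kinetic NADPH fluorescence loss (ex 365/em 450 nm) was monitored.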
# An asterisk follows results filed as active; i = inactive; ? = inconclusive; · = no result given; & = joins results of further samples; [ ] = remark or other dose. Potency is the fitted concentration of half-maximal effect.
SMILES,Anthrax LT inh,SmPrx2 inh
O=C(Nc1ccc(F)cc1F)c1ccc(COc2c(F)c(F)cc(F)c2F)o1,-25%,>57
FC(F)(F)c1ccc(Cl)cc1,-9%,·
Cc1ccc2cccc(S(=O)(=O)n3nc(C)cc3C)c2n1,?,>57
O=C(NCCN1CCOCC1)c1ccc(CS(=O)(=O)c2ccc(Br)cc2)o1,-3%,>57
CCN(CC(=O)Nc1ccc2c(c1)OCCO2)Cc1cc(=O)oc2cc(C)c(C)cc12,?,>57
O=c1[nH]c2ccccc2n1CCCN1CCC(n2c(=O)[nH]c3cc(Cl)ccc32)CC1,-8%[8 µM],>57&>57&>57
C=CCOC(=O)Nc1c(C(=O)OC)[nH]c2ccccc12,?,>57
CCCN(CCC)C[C@@H]1CCCCN1CCNC(=O)N1c2ccccc2C(=O)Nc2cccnc21,-11%,>57
CCOC(=O)COc1cc2c3c(c(=O)oc2cc1C)CCCC3,16%,>57
COc1ccc(S(=O)(=O)Cc2ccc(C(=O)NCCCN(C)c3ccccc3)o2)cc1,?,>57
CCOCCCNS(=O)(=O)Cc1ccccc1,-5%,>57
O=C(O)CCC(=O)Nc1ccc(C(=O)OC2CCCCC2)cc1,8%,·
Cc1ccc(CCNC(=O)c2nnn(-c3cc(C)cc(C)c3)c2N)cc1,-23%,>57
Cn1c(=O)n(CCCOc2ccc(Cl)cc2)c2ccccc21,3%,>57
CC[C@H](C)[C@H](N)C1=N[C@H](C(=O)N[C@@H](CC(C)C)C(=O)N[C@@H](CCC(=O)O)C(=O)N[C@@H](C(=O)N[C@H]2CCCCNC(=O)[C@@H](CC(N)=O)NC(=O)[C@@H](CC(=O)O)NC(=O)[C@@H](Cc3cnc[nH]3)NC(=O)[C@@H](Cc3ccccc3)NC(=O)[C@@H]([C@@H](C)CC)NC(=O)[C@@H](CCCN)NC2=O)[C@@H](C)CC)CS1,-2%[3.58 µM],>26
COc1ccc(S(=O)(=O)N2CCC(C(=O)NCc3ccccn3)CC2)cc1Cl,-17%,>57
COc1ccc(S(=O)(=O)Nc2nnc(C)s2)cc1,0%,·
C=Cn1ccnc1P(=S)(c1ccn(C)c1)c1nccn1C=C,-3%,>57
COc1ccc(-c2nc3cnc(OCc4ccccc4)nc3n(CCC#N)c2=O)cc1,?,i
O=C(CN(C(=O)CCC(=O)Nc1nccs1)c1ccc2c(c1)OCCO2)NCc1ccco1,1%,>57
CC(C)Nc1oc(-c2cccc3ccccc23)nc1C#N,?,>57
CN(C)c1cccc(C(=O)OCC(=O)NCC2CCCO2)c1 (stereo not given),-2%,>57
Cc1ccc(N2CC(c3nc4ccccc4n3C)CC2=O)cc1C (stereo not given),?,>57
CN1CCN(Cc2c(O)ccc3c(=O)c(Oc4ccccc4Cl)c(C(F)(F)F)oc23)CC1,-2%,>57
COc1ccc(NC(=O)c2cccc(-n3cnnn3)c2)cc1,-4%,>57
CCN(CC)c1ccc(C(=O)OCC(=O)N2CCN(c3ccccc3)CC2)cc1,-33%,>57
COc1ccc(C(OC(=O)c2ccco2)C(=O)NC2CCCCC2)cc1OC (stereo not given),-7%,>57
O=C(CS(=O)(=O)Cc1ccccc1)N1CCc2ccccc21,?,>57
COc1cccc(C(=O)N(Cc2ccc3c(c2)OCO3)Cc2nc3ccccc3c(=O)[nH]2)c1,2%,?
CC(C)(C)c1ccc(CN2CCN([C@H](c3ccccc3)c3ccc(Cl)cc3)CC2)cc1,-12%[8 µM],>57
c1c[nH]c(CN2CCN(Cc3ncc[nH]3)CC2)n1,5%[8 µM],>57
Cc1nc(SCc2c(F)cccc2Cl)n[nH]1,3%,>57
O=C(NCC1CCCO1)Nc1cccc(Cl)c1 (stereo not given),?,>57
Cn1cc(Cl)c(C(=O)NC2CCCC2)n1,-5%,>57
O=C(CCNC(=O)Cn1ccc2ccccc2c1=O)NCCN1CCc2ccccc2C1,2%,>57
CN1CCN(CCCN2c3ccccc3Sc3ccc(Cl)cc32)CC1,25µM*,>57&>57
COC(=O)C(C)Sc1nnc(Cc2cc(=O)[nH]c(=O)[nH]2)n1-c1ccc(OC)cc1 (stereo not given),-12%,>57
CC(Oc1ccccc1)C(=O)Nc1ccc(C(N)=O)cc1 (stereo not given),-1%,>57
CC1CC(C)CN(CCCNC(=O)CC2Oc3ccccc3NC2=O)C1 (stereo not given),-9%,>57
COc1ccccc1N1CCN(CC(=O)Nc2ccc(C)c(F)c2)CC1,?,>57

# Random excerpt: 2 entries already listed
SMILES,Anthrax LT inh,SmPrx2 inh
COc1cccc(C(=O)N(Cc2ccc3c(c2)OCO3)Cc2nc3ccccc3c(=O)[nH]2)c1,2%,?
COc1ccccc1N1CCN(CC(=O)Nc2ccc(C)c(F)c2)CC1,?,>57

# Further structures follow.
SMILES,Anthrax LT inh,SmPrx2 inh
O=C(OCC(=O)N1CCCc2ccccc21)c1ccc(Br)o1,-6%,>57
Cc1cnc(CNc2nc(-c3ccc4c(c3)OCO4)nc3ccccc23)cn1,15%,>57
CCn1nc(C)c(NC(=O)CSc2nnc(-c3ccco3)n2C)c1C,-12%,>57
CNC(=O)CSc1nnc(CCc2ccccc2)n1-c1ccccc1,-4%,>57
O=[As](O)(O)c1ccc(Cc2ccc([As](=O)(O)O)cc2)cc1,?,0.17*
Nc1ncnc2oc(-c3ccco3)c(-c3ccco3)c12,-27%,·
CC(=O)OC(Cn1ccnc1)c1ccccc1 (stereo not given),-3%,>57
N#Cc1ccc(NC(=O)N2CCC(c3nc4c(nnn4Cc4cccc(Cl)c4)c(=O)[nH]3)CC2)cc1,?,>57
COc1ccc(C)cc1NC(=O)CN(C)S(=O)(=O)c1cccs1,-3%,>57
CNCC[C@@H](Oc1ccccc1C)c1ccccc1,?,>57
COc1cc2ccc(=O)oc2c(O)c1OCC=C(C)C,?,>57&>57
COc1ccc(C(=O)NC2(C(F)(F)F)N=C3SCCN3C2=O)cc1 (stereo not given),14%,>57
Cc1cc(N)n(C2CCN(C)CC2)n1,2%,>57
Cn1c(SCC(=O)N2CCCc3ccccc32)nnc1-c1ccccc1,0%,>57
COCCN(C(=O)C(F)(F)F)C(C(=O)NC1CCCCC1)c1ccco1 (stereo not given),-7%,>57
Cc1ccc2c(c1)NC(=O)C(CC(=O)Nc1ccc(CN3CCC(C)CC3)cc1)O2 (stereo not given),-7%,>57
CCCCCCCC/C=C\CCCCCCCC(N)=O,?,>57
COC(=O)c1ccccc1NC(=O)CN1CCC(NC(=O)c2ccc(C)cc2)CC1,-2%,>57
CCOc1ccc(-n2c(SCC(=O)NCc3ccco3)nc3c([nH]c4ccccc43)c2=O)cc1,-9%,>57
O=C(CNS(=O)(=O)c1ccc(F)cc1)N1CCN(c2ccccc2)CC1,3%,>57
Cc1noc(C)c1CSc1nnc2scc(-c3ccccc3)n12,10%,>57
CN(Cc1ccco1)c1ncncc1-c1cccc(C#N)c1,-3%,>57
C[N+](C)(C)CC(=O)O,-6%,>57
CCOC(=O)c1c(C)[nH]c(C(=O)COC(=O)c2ccc(N3CCCC3=O)cc2)c1C,-11%,>57
CCn1nnc(-c2ccccc2NS(=O)(=O)c2ccc(S(=O)(=O)N3CCCCCC3)cc2)n1,-16%,>57
CCOCCOC(=O)c1cccc(NC(=O)OCC)c1,-5%,·
COC(=O)c1ccc(C(NC(=O)OCc2ccccc2)/C(=C/[C@@H](C)C(=O)NCc2cccnc2)c2cccnc2)cc1 (stereo not given in full),1%,·
COc1cc2[nH]c(=O)n(CCCCCC(=O)N3CCN(c4ccccn4)CC3)c(=O)c2cc1OC,-2%,>57
O=C1OC(Nc2ccc(F)cc2F)c2ccccc21 (stereo not given),?,>57
CCOC(=O)c1ccccc1NC1CC(=O)N(c2ccccc2C)C1=O (stereo not given),-1%,>57
O=C(CSc1nnc(-c2ccccc2)o1)Nn1cnnc1,?,>57
COc1cc2c(cc1O)C[C@@H]1c3c(cc(O)c(OC)c3-2)CCN1C,-14%[8 µM],>57
CCN(CC)CCCNC(=O)Cn1cc2c(n1)CCC(C)C2 (stereo not given),-6%,·
CC1(C)C(=O)Nc2ccccc2N1C(=O)CN1C(=O)c2ccccc2C1=O,13%,>57
Cc1ccc(S(=O)(=O)NCC(=O)N(CCc2ccccc2)CC(=O)NCc2ccco2)cc1,-4%,>57
COc1cccc(OC)c1C(=O)Nc1ccc(S(=O)(=O)Nc2cc(C)nc(C)n2)cc1,9%,>57
COc1ccccc1-c1cc(N)n[nH]1,16%,>57
COc1cc(SC)ccc1C(=O)Nc1ccon1,20%,>57
COc1ccccc1C(=O)Nc1ncc2c(n1)CC(c1ccco1)CC2=O (stereo not given),·,>57
Brc1ccc(CSc2ncn[nH]2)cc1,?,·
Cc1ccc(S(=O)(=O)N2CCC(C(=O)N[C@@H](C)C(=O)Nc3ccc4c(c3)OCO4)CC2)cc1,4%,>57
CN(C)c1ccc(C(=O)c2ccccc2C(=O)O)c(O)c1,6%,·
CC(=O)Nc1nc(CC(=O)c2ccccc2)cs1,6%,>57
CCNC(=O)c1ccccc1NC(=O)c1cccc(S(=O)(=O)N2CCC(C)CC2)c1,-21%,>57
COc1ccc(Br)cc1C(=O)O,1%,>57
Cc1cc(-n2c(SCC(=O)NCc3cccs3)nc3n[nH]c(C)c3c2=N)ccc1Cl,10µM*,>57
Cn1nc(-c2ccc(Cl)cc2)c2cc(C(=O)N3CCN(c4ccccc4)CC3)sc21,?,>57
CCOC(=O)N(C)c1ccc(C(O)(C(=O)OCC)C(F)(F)F)cc1 (stereo not given),2%,>57
C=CCSc1nnc(-c2ccccc2NC(C)=O)c(=O)[nH]1,-2%,>57
Cc1ccc(S(=O)(=O)N2CCN(C(=O)CSc3nnnn3C)C2)cc1,4%,>57
CC(C)C[C@@H](CC(=O)N[C@@H](CCCN)CC(=O)N[C@@H]1CCCC[C@H]1C(=O)N[C@H](CC(=O)N[C@@H](CCC(=O)O)CC(=O)O)CC(C)C)NC(=O)[C@@H]1CCCC[C@H]1N,-10%,>57
CCc1ccc(NC(=O)Nc2cccs2)cc1,?,>57
Cc1cccc(N2CCCn3c2nc2c3c(=O)n(CC(=O)OCc3ccccc3)c(=O)n2C)c1,?,>57
CCOC(=O)N1CCN(C(=O)c2nc3ccccc3s2)CC1,?,>57
Cc1ccc(-c2nnc(N(C)C(=O)C3CCCO3)s2)cn1 (stereo not given),-17%,>57
CCOC(=O)N1CCN(S(=O)(=O)c2ccc(OC)c3ccccc23)CC1,1%,>57
Cn1c(=O)[nH]c(=O)c2c1nc(CN1CCN(c3ccc(F)cc3)CC1)n2CCc1ccccc1,9%,>57
CCOC(=O)Cc1c(C)c2c(O)cc(O)cc2oc1=O,?,>57
COc1ccccc1C(=O)Nc1ccc2c(c1)OCO2,-14%,·
c1ccc(Nc2ccccc2)cc1,0%,·

# Next part.
SMILES,Anthrax LT inh,SmPrx2 inh
COC(=O)CSc1nc2ccc(NC(=O)CSc3nnnn3Cc3ccccc3)cc2s1,5µM*,·
COc1ccccc1NC(=O)Cc1noc(CN(C)Cc2cccs2)n1,-11%,>57
CC(=O)Nc1ccc(S(=O)(=O)n2nc(C)cc2C)cc1,-10%,>57
CCOC(=O)c1c(C)[nH]c(C(=O)COC(=O)c2ccc(F)c(S(=O)(=O)N3CCOCC3)c2)c1C,-4%,>57
CCOC(=O)N1CCC(NC(=O)CCC(=O)N2CCOc3ccc(C)cc32)CC1,-1%,>57
Cn1c(=O)cc(OCCCC(=O)NCCN2CCN(c3ccccc3F)CC2)c2ccccc21,-6%,>57
COc1cccc(C2=NOC(C(=O)NCc3ccccn3)C2)c1 (stereo not given),10%,>57
COCCCNC(=O)CN(Cc1ccc(Cl)cc1)S(C)(=O)=O,10%,>57
COc1ccc(OC)c(S(=O)(=O)Nc2cc(OC)c(Cl)cc2OC)c1,-11%,>57
COC(=O)c1cccc(N(C(=O)CNC(=O)c2ccco2)C(C(=O)NC2CCCC2)c2ccco2)c1 (stereo not given),?,>57
COc1ccccc1NC(=O)CC(NCc1ccccc1)C(=O)O (stereo not given),10%,>57
COc1cc(NC(=O)COc2ccc(-n3cnnn3)cc2)c(OC)cc1Cl,4%,·

# By substructure: the compounds so far containing fluorine
SMILES,Anthrax LT inh,SmPrx2 inh
O=C(Nc1ccc(F)cc1F)c1ccc(COc2c(F)c(F)cc(F)c2F)o1,-25%,>57
FC(F)(F)c1ccc(Cl)cc1,-9%,·
CN1CCN(Cc2c(O)ccc3c(=O)c(Oc4ccccc4Cl)c(C(F)(F)F)oc23)CC1,-2%,>57
Cc1nc(SCc2c(F)cccc2Cl)n[nH]1,3%,>57
COc1ccccc1N1CCN(CC(=O)Nc2ccc(C)c(F)c2)CC1,?,>57
COc1ccc(C(=O)NC2(C(F)(F)F)N=C3SCCN3C2=O)cc1 (stereo not given),14%,>57
COCCN(C(=O)C(F)(F)F)C(C(=O)NC1CCCCC1)c1ccco1 (stereo not given),-7%,>57
O=C(CNS(=O)(=O)c1ccc(F)cc1)N1CCN(c2ccccc2)CC1,3%,>57
O=C1OC(Nc2ccc(F)cc2F)c2ccccc21 (stereo not given),?,>57
CCOC(=O)N(C)c1ccc(C(O)(C(=O)OCC)C(F)(F)F)cc1 (stereo not given),2%,>57
Cn1c(=O)[nH]c(=O)c2c1nc(CN1CCN(c3ccc(F)cc3)CC1)n2CCc1ccccc1,9%,>57
CCOC(=O)c1c(C)[nH]c(C(=O)COC(=O)c2ccc(F)c(S(=O)(=O)N3CCOCC3)c2)c1C,-4%,>57
Cn1c(=O)cc(OCCCC(=O)NCCN2CCN(c3ccccc3F)CC2)c2ccccc21,-6%,>57

# Only part of the results is shown; the hit share may differ from the screen's.
